2A firefly: Primary qHTS Assay for Foot and Mouth Disease Virus Antivirals against NCGC Sytravon and CBC Compound Libraries: Firefly Luciferase Signal; HEK cells with a luciferase reporter of 2A StopGo recoding; AID 1745856, 2022; 120,000 tested, 0.23% active; Potency, µM (series often up to 57.5 µM), for inactives: at the top dose signal change, negative = less light; active = well fitted falling curve with a large enough effect; inconclusive = small, poorly fitted or top-dose-only effect; inactive = no such curve, though single readings can be large or run the other way; further: nearly all actives have a fitted effect of over 60% in size; overnight with compound
StopGo RLuc: Primary qHTS Assay for Foot and Mouth Disease Virus Antivirals against NCGC Sytravon and CBC Compound Libraries: Renilla Luciferase Signal; HEK cells with a luciferase reporter of 2A StopGo recoding; Potency, µM (doses to about 57.5 µM), for inactives: at the highest dose signal change, negative = less light; 120,000 tested, 0.32% active; AID 1745857, 2022; active means well fitted falling curve with a large enough effect; inconclusive means small, poorly fitted or top-dose-only effect; inactive means no such curve, though single readings can be large or run the other way; further: nearly all actives have a fitted effect of over 55% in size; overnight with compound
An asterisk follows results filed as active; ? = inconclusive; [ ] = another dose, or the depositor's remark. On the % scale 0 is the no-effect control and ±100 the full control effect; potency means the concentration at half of the fitted maximal effect.

SMILES	2A firefly	StopGo RLuc
O=C(Cc1c[nH]c2ccccc12)NCc1cccs1	75.8%[activator]	3.7%
CCc1nc2nc(C)cc(Nc3cc(Cl)ccc3OC)n2n1	-9.3%	-16.0%
Cc1ccc(C(=O)C(C#N)C(=O)Nc2ccccc2C)cc1C (stereo not given)	0.0%	0.0%
Cc1ccc2nc(NC(=O)CSc3ncc(C(=O)Nc4ccc(F)cc4)c(=O)n3C)sc2c1	18.8%	2.9%
COc1ccc(-c2[nH]c3ccccc3c2SCCNC(=O)c2ccc(S(=O)(=O)N(C)C)cc2)cc1	-14.3%	12.5%
O=C(COC(=O)c1cc(=O)c2ccccc2o1)Nc1ccc2ccccc2c1	56.7%[activator]	-6.2%
O=C(Cn1ncc2ccccc2c1=O)NCCc1ccccc1	115.3%[activator]	19.4%
COCCCNC(=O)c1c(NC(=O)c2cc(=O)c3cc(C)c(C)cc3o2)sc2c1CCCC2	-14.6%	-1.4%
O=C(OCc1nc2ccccc2o1)c1ccc(CO)cc1	-5.2%	-12.4%
Cc1ccc(NC(=O)CN2C(=O)c3ccccc3Sc3ccc(C(=O)N4CCCC4)cc32)cc1	-12.4%	20.8%
CCc1ccc(CNC(=O)c2ccc(NC(=O)N3CCSc4ncccc43)cc2)cc1	-0.3%	-12.3%
COc1ccc(C)cc1N1CC(C(=O)Nc2ncn[nH]2)CC1=O (stereo not given)	-3.4%	-4.5%
COc1ccc(S(=O)(=O)NCC(c2ccco2)N2CCOCC2)cc1C (stereo not given)	-19.5%	76.4%[activator]
COC(=O)c1ccc(Cn2c(=O)cc(C)c3c(C)nn(C)c32)cc1	5.4%	7.6%
Cc1cccc(CCNC(=O)c2ccc3c(c2)nc2n3CCC(C)C2)c1 (stereo not given)	45.9%[activator]	-2.7%

Arranged by SMILES length (low to high): part of the list above.
SMILES	2A firefly	StopGo RLuc
O=C(OCc1nc2ccccc2o1)c1ccc(CO)cc1	-5.2%	-12.4%
O=C(Cn1ncc2ccccc2c1=O)NCCc1ccccc1	115.3%[activator]	19.4%
COc1ccc(C)cc1N1CC(C(=O)Nc2ncn[nH]2)CC1=O (stereo not given)	-3.4%	-4.5%

Remaining list, next part.
SMILES	2A firefly	StopGo RLuc
Cn1c(=O)[nH]c(=O)c2[nH]c(CN3CCN(c4ccccc4F)CC3)nc21	-1.6%	-4.1%
COC(=O)c1ccccc1NC(=O)CSc1nc2ccsc2c(=O)n1CCC(C)C	0.0%	-13.3%
CCCCCn1nc(C(=O)Nc2cc(F)ccc2C)c2ccccc2c1=O	5.6%	1.2%
CC1Cc2nc(SCC(=O)N3CCCCC3)n(-c3ccccc3)c(=O)c2S1 (stereo not given)	-0.4%	-4.4%
CCOc1ccc(N2CC(c3nc4ccccc4n3CCCOc3ccccc3OC)CC2=O)cc1 (stereo not given)	-9.6%	16.9%
CC(C)(C)c1ccc(OCC(=O)OCC(=O)Nc2sccc2C(N)=O)cc1	27.1%	-6.2%
Cc1ccc(C(=O)Nc2cc(-c3nc4ccccc4s3)ccc2C)c(C)c1	23.8%	10.2%
CC1=C(C(=O)NCc2cccc(F)c2)C2(CCCCCC2)OC1=O	15.5%	8.3%
O=C(COc1ncnc2ccccc12)Nc1ccc(Oc2ccccc2)cc1	12.2%	18.5%
CCN(CC)S(=O)(=O)c1ccc(NC(=O)CN(c2ccc(F)c(Cl)c2)S(C)(=O)=O)cc1	?	3.6%
CCOc1ccc(OCC)c(NC(=O)CC(C)n2nc(C)cc2C)c1 (stereo not given)	-14.9%	-14.4%
Cc1ccccc1-c1noc(CSc2nc(-c3ccc(F)cc3)cc(=O)[nH]2)n1	7.1%	-19.0%
Nc1nn(-c2ccccc2)nc1C(=O)OCc1ccc(Cl)cc1	0.0%	5.4%
CCc1ccc(NC(=O)c2cnn(-c3ccccc3)c2-n2cccc2)cc1	26.8%	-7.4%
Cc1oc2c(cc(NS(=O)(=O)c3ccc(Br)cc3)c3ccccc32)c1C(=O)OCc1ccccc1	36.1%[activator]	67.6%[activator]
O=C(COc1ccccc1)Nc1ccc2nc(SCCOc3ccccc3)sc2c1	-12.6%	-10.0%
CC1=C(C(=O)Nc2ccccn2)C(c2ccccc2)n2ncnc2N1 (stereo not given)	23.9%	-3.3%
COC(=O)c1ccccc1NC(=O)c1cc2ccccn2n1	145.9%[activator]	-3.4%
Cc1cc(C)cc(NC(=O)NCC2CCN(Cc3cc(C)ccc3C)CC2)c1	-13.5%	4.3%
CCOC(=O)c1ccc(NS(=O)(=O)c2ccc3c(c2)CCN3C(=O)CC)cc1	27.6%	166.8%[activator]
Cc1ccc(-c2cnc(CCC(=O)NC3=NCCS3)o2)cc1C	11.3%	-7.6%
CCOc1ccccc1CNS(=O)(=O)c1ccc2[nH]c(=O)ccc2c1	7.3%	18.0%
CSc1ccc(NC(=O)Nc2cc(F)ccc2F)cc1	35.2%[activator]	?
Cc1ccc(N(CC(=O)Nc2ccc(C)c(F)c2)S(=O)(=O)c2c(C)n[nH]c2C)cc1	-21.3%	26.2%
CCCn1c(NC(=O)c2oc3ccccc3c2COC)nc2ccccc21	-2.1%	1.2%
Cc1cccc(NC(=O)CSc2nc3c(sc4ccccc43)c(=O)n2CCCC(=O)NC2CCCC2)c1	-16.0%	-13.1%
CCOc1ccc(CNC(=O)CCCn2c(=O)c3cccn3c3ccccc32)cc1	-13.4%	-0.6%
COc1ccc2c(c1)c(C(C(=O)O)N1CCN(c3ccccc3OC)CC1)cn2CCC(=O)O (stereo not given)	8.3%	0.0%
Cc1ccccc1-c1nc(CS(=O)(=O)CC(=O)N2CCN(c3ccccc3)CC2)c(C)o1	-40.1%	-18.3%
Cc1nc(-c2cc3ccc(OC(=O)C4CC4)cc3oc2=O)cs1	64.9%[activator]	-1.9%
O=C(c1cc(Cl)ccc1Cl)N1CCOc2ccccc21	7.7%	6.6%
COc1ccccc1CC(=O)Nc1ccc2c3c(cccc13)CC2	0.0%	5.1%
CCc1ccc(NC(=O)c2ccc(OCc3ccccc3)cc2)cc1	15.1%	8.0%
CCn1c(=O)cc(SCC(=O)NCCc2cc(OC)ccc2OC)c2ccccc21	-16.6%	-1.9%
CCC(C)Sc1nc2c(c(=O)n(C)c(=O)n2C)n1Cc1ccccc1Cl (stereo not given)	-6.5%	-13.2%
CCCCn1nc(C(=O)NCC(=O)Nc2ccc(Br)cc2C)c2ccccc2c1=O	-12.7%	33.5%[activator]
COc1cccc(F)c1-c1nc(C)c(C(=O)Nc2ccc(NC(C)=O)cc2)s1	44.4%[activator]	49.7%[activator]
O=C(NC1(C(F)(F)F)N=C(c2ccccc2)N(Cc2ccco2)C1=O)c1ccccc1 (stereo not given)	-0.5%	2.7%
O=C(Nc1nn2c(-c3ccccc3)nnc2s1)c1ccccc1F	20.2%	-21.3%
CC(C)Cn1c(SCC(=O)Nc2ccc(Cl)cn2)nc2ccccc21	0.0%	24.2%
O=S(=O)(c1ccc(=S)[nH]n1)C1CCCCC1	-3.4%	-5.3%
COc1ccccc1CNc1ncnc2c1c(-c1ccccc1)cn2-c1cccc(C)c1	-24.7%	-5.7%
CCN(CC)S(=O)(=O)c1ccc(=O)n(CCOc2ccc(C#N)cc2)c1	10.4%	5.5%
Cc1cccc(N(C)S(=O)(=O)c2cc(-c3cnc(C4CC4)o3)ccc2C)c1	?	?
COc1cc(OC)c(C(=O)Oc2ccc(C#N)cc2OC)cc1OC	9.5%	-10.5%
CC(Oc1ccc(-c2ccc(C#N)cc2)cc1)c1ccc(F)cc1 (stereo not given)	24.0%	0.8%
Cc1cccc(-n2cc(-c3ccccc3)c3c(N4CCC(C)CC4)ncnc32)c1	-15.7%	-5.3%
CNC(=O)C1CCN(C(=O)N2CC(C)Oc3ccc(Cl)cc32)CC1 (stereo not given)	-6.8%	3.0%
COc1ccc(CNc2ncnc3c2cnn3-c2ccc(Cl)cc2)cc1	39.5%[activator]	-9.2%
CCC(C)NC(=O)Cn1ncc2ccccc2c1=O (stereo not given)	0.0%	18.7%
O=c1[nH]c(=O)n([C@H]2C[C@H](O)[C@@H](CO)O2)cc1Br	-14.8%[11.5 µM]	14.9%
COC(=O)[C@H](Cc1ccccc1)N(Cc1cn(Cc2ccccc2)nn1)S(=O)(=O)c1ccccc1Br	-13.6%	101.5%[activator]
COc1cc(C2CC(=O)Nc3c(-c4ccc(C)cc4)csc32)ccc1OCC(N)=O (stereo not given)	?	?
CC1(C(=O)NCc2ccccc2)CCC(=O)N1Cc1ccccc1Cl (stereo not given)	1.7%	39.2%[activator]
NC(=O)c1cc[n+](CC2=C(C(=O)[O-])N3C(=O)[C@@H](NC(=O)Cc4cccs4)[C@H]3SC2)cc1	-10.8%	-9.6%
Cc1ccc(CCNC(=O)c2ccc3c(c2)N(Cc2cc(C)ccc2C)C(=O)c2ccccc2S3=O)cc1 (stereo not given)	-1.0%	-0.9%
OB1Oc2ccccc2-c2ccccc21	7.4%	-0.7%
CSc1ccc(CC2C(=O)Nc3ccccc32)cc1 (stereo not given)	8.5%	5.0%
N#Cc1c(SCCN2CCCCC2)nc(N2CCOCC2)c2c1CCCC2	-26.4%	-18.4%
O=C(NCc1ccc2c(c1)CCN2C(=O)c1ccccc1)Nc1cccc(C(F)(F)F)c1	?	0.0%

Later entries.
SMILES	2A firefly	StopGo RLuc
COc1ccc(OC)c(CCNC(=O)c2csc3c2CCCCC3)c1	-9.8%	47.9%[activator]
CC1Cc2ccccc2N1C(=O)CSc1nnc(-c2ccccc2Cl)o1 (stereo not given)	28.9%	31.5%[activator]
N#CCN1CCNCC1	0.0%	22.5%
COc1ccc2cc(C(=O)N3CCN(Cc4ccccc4)CC3)c(C)nc2c1	-21.8%	?
Cc1ccc(-c2nn3c(=O)cc(CN4CCN(C(=O)Nc5cc(Cl)ccc5C)CC4)nc3s2)cc1	0.0%	-13.7%
CCCSc1nc2c([nH]c3ccccc32)c(=O)n1C	-18.3%	-15.7%
CCOC(=O)c1c(S(=O)(=O)N2CCCC(C(=O)Nc3ccc(F)cc3)C2)c(C)n(C)c1C (stereo not given)	22.5%	31.4%
COc1cccc2c1C(=O)c1c(O)c3c(c(O)c1C2=O)C[C@@](O)(C(=O)CO)C[C@@H]3O[C@H]1C[C@H](N)[C@H](O[C@@H]2CCCCO2)[C@H](C)O1	-22.2%	-25.2%
Cc1ccc(C(=O)N/N=C/c2cccnc2)s1	86.3%[activator]	17.1%
Cc1ccc(CN(CC(=O)NC(N)=O)C2CC2)cc1	5.4%	8.9%
CCOc1ccc(Nc2nc3ccccc3n3c(CC)nnc23)cc1	4.7%	-2.8%
O=C(Cn1ccc2c(Br)cccc21)N1CCCC1	7.3%	-11.9%
Cc1ccc2[nH]c3c(c2c1)CCCC3NCC12CC3CC(CC(C3)C1)C2 (stereo not given)	-19.0%	0.0%

Among those listed so far, 11 have a Cl atom.
SMILES	2A firefly	StopGo RLuc
CCc1nc2nc(C)cc(Nc3cc(Cl)ccc3OC)n2n1	-9.3%	-16.0%
CCN(CC)S(=O)(=O)c1ccc(NC(=O)CN(c2ccc(F)c(Cl)c2)S(C)(=O)=O)cc1	?	3.6%
Nc1nn(-c2ccccc2)nc1C(=O)OCc1ccc(Cl)cc1	0.0%	5.4%
O=C(c1cc(Cl)ccc1Cl)N1CCOc2ccccc21	7.7%	6.6%
CCC(C)Sc1nc2c(c(=O)n(C)c(=O)n2C)n1Cc1ccccc1Cl (stereo not given)	-6.5%	-13.2%
CC(C)Cn1c(SCC(=O)Nc2ccc(Cl)cn2)nc2ccccc21	0.0%	24.2%
CNC(=O)C1CCN(C(=O)N2CC(C)Oc3ccc(Cl)cc32)CC1 (stereo not given)	-6.8%	3.0%
COc1ccc(CNc2ncnc3c2cnn3-c2ccc(Cl)cc2)cc1	39.5%[activator]	-9.2%
CC1(C(=O)NCc2ccccc2)CCC(=O)N1Cc1ccccc1Cl (stereo not given)	1.7%	39.2%[activator]
CC1Cc2ccccc2N1C(=O)CSc1nnc(-c2ccccc2Cl)o1 (stereo not given)	28.9%	31.5%[activator]
Cc1ccc(-c2nn3c(=O)cc(CN4CCN(C(=O)Nc5cc(Cl)ccc5C)CC4)nc3s2)cc1	0.0%	-13.7%
